# Screens as filed in PubChem.
# RN4220 kill – growth inhibition of S. aureus RN4220, primary screen, OD600 | inhibition, % (concentration not given with the values) | 330,000 tested, 0.33% active | 16 h | AID 1259311, 2017;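 active means z-score of -3 or lower and OD600 up to 0.18 on both plates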;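 further: plate controls were untreated cells for no effect and reference antibiotic for full effect; stock transfer was 100 nL into about 80 µL; one replicate is shown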
# Sa ugtP lethal – growth inhibition of ugtP-null S. aureus, primary screen, RN4220 ugtP deletion, OD600 | 16 h; some inactives read as strong as hits | 330,000 tested, 0.54% active | growth inhibition, % (concentration not given with the values);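 active means z-score under -3 and OD600 up to 0.15 on both plates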;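 further: plate controls were untreated wells for no effect and antibiotic for full effect; wells of about 80 µL received 100 nL stock; the first replicate is given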
# PrP 5UTR inh – inhibition of PrP 5' UTR reporter expression; inhibition, % (test concentration not listed); AID 488862, 2010; cell-based PrP 5' UTR mRNA reporter, plate reader; 340,000 tested, 0.35% active;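 active means every replicate at 50% or more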;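 further: 0 = median of the neutral control wells; tested in H4 reporter cells; numbers are from one replicate; inactives centre near -14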
# Mtb hypoxia inh – PubChem AID 1159583; M. tuberculosis hypoxia-regulated fluorescent reporter, fluorescence; fluorescence inhibition, % (no concentration beside the values); 300,000 tested, 0.1% active;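 active means 35 to 45% if threefold the growth effect, above 45% if 1.5-fold the growth effect; inactive means the rest, general growth blockers included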;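 further: wells of about 50 µL received 100 nL stock; 0% = vehicle wells and 100% = reference inhibitor wells; whole bacteria with a GFP reporter of the hypoxia response; strong numbers were not always called active; many hits fall short of the cut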
# BJeLR lethal – MLPCN primary cell-based screen for lethality selective to Ras in HRASV12 cells. inhibition, % (no concentration beside the values). BJeLR (HRASV12) viability, CellTiter-Glo ATP luminescence, 48 h; reference of the scale not given here. 300,000 tested, 0.17% active;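 active means replicate mean above 50%; inconclusive means above 50% but judged a plate artefact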;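 further: 50 nL library stock added to about 25 µL; numbers are from one replicate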
# Autofluor counter – compound fluorescence in toxin protease inhibitor counterscreen. compound autofluorescence counterscreen, microsphere flow cytometry; stronger effect = higher value. fluorescence intensity (concentration not given with the values). 360,000 tested, 3.1% active. AID 624483;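 active means at least 3 SD above the mean of all compounds, about 16000 in these data; inconclusive means too few beads counted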;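 further: 100 nL of 1 mM stock went into each well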
# Mtb hypoxia inh growth – further read-out of Mtb hypoxia inh, marked with its call; growth inhibition, %; measured here: M. tuberculosis growth (absorbance);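 0% = vehicle and 100% = reference antibiotic; read after six days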
# * hit, by the source's call; u = inconclusive; x = not tested or not shown.
1. CCOc1ccc(S(=O)(=O)Nc2cccc(C(=O)N3CC(C)OC(C)C3)c2)cc1 (stereo unspecified)
2. O=S(=O)(Cc1ccccc1)N1CCN(C/C=C/c2ccccc2)CC1
3. COc1ccc(S(=O)(=O)Nc2ccc3c(c2)C(=O)N([C@H](C)CO)C[C@H](C)[C@@H](CN(C)C(=O)Nc2ccccc2)O3)cc1
4. COc1ccc(-c2nc3cccc(C)n3c2NCC2CCCO2)cc1O (stereo unspecified)
5. CCCN(CC(=O)Nc1ccccc1Br)CC(=O)Nc1ccc(F)c(F)c1F
6. CCCC(=O)N(CCN1CCOCC1)c1nc2ccc(OCC)cc2s1

Assay by compound	1	2	3	4	5	6
RN4220 kill	0.6	1.6	-10	8.6	3.7	1.2
Sa ugtP lethal	0	6	-4	4	-3	7
PrP 5UTR inh	8	-13	-7	-9	-42	-19
Mtb hypoxia inh	8	0	-5	-1	6	8
Mtb hypoxia inh growth	3	-3	5	8	11	6
BJeLR lethal	3	-8	x	4	-10	-3
Autofluor counter	u	25473*	3502	3195	2109	5384

7. CCOC(=O)c1nn(-c2ccccc2)c(=O)cc1OCC(=O)Nc1ccccc1OCC
8. CC(=O)N/C(=C\c1ccc(C)cc1)C(=O)O
9. O=C(NCc1ccccn1)C(=O)N/N=C/c1ccccc1O
10. Cc1ccc(S(=O)(=O)N2CCCCC2)cc1NC(=O)Cc1cccs1
11. CC(=O)NC1=NN(C(C)=O)C(C)(CC(=O)OC(C)(C)C)S1 (stereo unspecified)
12. O=C(CCC(=O)OCC(=O)c1ccc(Br)cc1)Nc1cccc2cccnc12

Assay by compound	7	8	9	10	11	12
RN4220 kill	4.7	1.6	x	0.5	16	8.9
Sa ugtP lethal	1	6	x	6	8	0
PrP 5UTR inh	-7	-16	-14	-15	-11	-7
Mtb hypoxia inh	3	7	x	24	-6	-1
Mtb hypoxia inh growth	1	5	x	9	1	-4
BJeLR lethal	-9	0	-4	x	-14	-5
Autofluor counter	5582	2032	4509	4041	3121	x

13. COC(=O)c1ccc(N2CCN(CCNC(=O)Nc3ccc(OC)cc3)CC2)cc1
14. Cc1c(NC(=O)COC(=O)/C=C/c2cccc(Br)c2)c(=O)n(-c2ccccc2)n1C
15. NC(CO)c1nnc(C(Cc2ccc(O)cc2)NC(=O)C2CCNCC2)o1 (stereo unspecified)
16. COCCOC(=O)c1c(NC(=O)CNCc2ccco2)sc(C(N)=O)c1C
17. Cc1ccc2c(CC(=O)NC3=NCCS3)coc2c1
18. CC(=O)c1cn(CC(=O)NCc2cccnc2)c2ccccc12

Assay by compound	13	14	15	16	17	18
RN4220 kill	1.9	1.9	6.2	0.5	4.7	3.8
Sa ugtP lethal	1	3	-4	1	6	6
PrP 5UTR inh	-20	-11	x	-10	-13	-11
Mtb hypoxia inh	-11	4	5	1	x	-1
Mtb hypoxia inh growth	3	10	5	-2	x	0
BJeLR lethal	-1	x	x	2	9	1
Autofluor counter	4138	4046	x	3644	3345	7638

19. Nc1ncc([N+](=O)[O-])cc1Br
20. CC(=O)c1ccc(OCC(O)CN2CCOCC2)cc1 (stereo unspecified)
21. COc1ccc(/C=C(\CC(=O)O)c2nc3ccccc3s2)cc1O
22. O=C(COc1ccccc1)N1CCN(S(=O)(=O)c2ccc(Br)cc2)CC1
23. CCc1nc2sc3c(O)cc(=O)[nH]c3c2cc1C
24. O=C(O)CCN1C(=O)C2CCCCC2C1=O (stereo unspecified)

Assay by compound	19	20	21	22	23	24
RN4220 kill	6.3	18	3.9	6.4	11	2.4
Sa ugtP lethal	5	8	2	8	4	1
PrP 5UTR inh	-12	-32	0	-14	-2	5
Mtb hypoxia inh	5	-4	-7	-8	-1	-4
Mtb hypoxia inh growth	8	0	5	-2	8	11
BJeLR lethal	-3	3	19	7	4	-4
Autofluor counter	3583	6093	3317	6204	4138	4267

25. O=C(CCc1ccccc1)NNC(=O)Nc1ccc(F)c(Cl)c1
26. COc1cccc(-c2nn(Cc3ccccc3)cc2CO)c1
27. CCOc1ccc(S(=O)(=O)NC2CC2)cc1C(N)=O
28. COc1cc(C2CC(=O)c3c(O)cc(O)cc3O2)ccc1O (stereo unspecified)
29. CCN1/C(=C\C=C2\C(=O)N(C)C(=S)N2C)Sc2ccccc21
30. CCc1cc(=S)n2c([nH]c3ccccc32)c1C#N

Assay by compound	25	26	27	28	29	30
RN4220 kill	-0.3	1.3	8.1	0.6	4.9	74
Sa ugtP lethal	-5	0	-6	7	-7	76
PrP 5UTR inh	-26	-11	-20	-23	-52	-3
Mtb hypoxia inh	-2	-4	14	x	18	13
Mtb hypoxia inh growth	6	-3	4	x	-5	9
BJeLR lethal	4	-2	-10	-3	7	19
Autofluor counter	5744	6005	4748	5522	3421	4112

31. CCN1C(=O)/C(=C\N(C)C)S/C1=N\S(=O)(=O)c1ccccc1
32. CCOc1ccc(C(=O)Nc2cc(NC(=O)c3ccc(OCC)c(Cl)c3)cc(C(=O)O)c2)cc1Cl
33. O=C(NN1C(=O)C2C(C1=O)C1C=CC2C12CC2)c1ccncc1 (stereo unspecified)
34. COc1ccsc1NC(=O)OCc1ccc(Cl)cc1
35. COc1ccccc1CNC(=O)c1cnn2c(C(F)F)cc(C)nc12
36. CC(OC(=O)c1cc[n+]([O-])cc1)C(=O)NCc1ccccc1 (stereo unspecified)

Assay by compound	31	32	33	34	35	36
RN4220 kill	x	-6.6	3.1	2.6	1.3	1.5
Sa ugtP lethal	x	-7	1	2	-4	6
PrP 5UTR inh	-16	-17	-13	-20	0	-2
Mtb hypoxia inh	x	1	x	6	13	-3
Mtb hypoxia inh growth	x	1	x	6	3	0
BJeLR lethal	8	-6	-4	-6	5	3
Autofluor counter	4174	4865	4575	3331	x	u

37. COC(=O)CSc1nc2sc3c(c2c(=O)n1-c1ccc(OC)cc1)CCN(C)C3
38. Cc1ccc([N+](=O)[O-])cc1NC(=O)CNC1CCCCC1
39. COCCNC(=O)C1CC(c2cccc(F)c2)=NO1 (stereo unspecified)
40. CN(C)S(=O)(=O)c1cccc(C(=O)Nc2cc(S(=O)(=O)N3CCOCC3)ccc2N2CCCC2)c1
41. O=S(=O)(Nc1c(F)cccc1F)c1ccc2c(c1)OCCO2
42. CC(C)c1ccc(/C=N/n2cnnc2)cc1

Assay by compound	37	38	39	40	41	42
RN4220 kill	0.2	1.6	7.5	1.2	1.8	x
Sa ugtP lethal	20	16	3	4	-2	x
PrP 5UTR inh	-10	-16	-30	-13	-24	-15
Mtb hypoxia inh	9	8	11	8	11	x
Mtb hypoxia inh growth	3	3	9	8	-6	x
BJeLR lethal	13	-4	8	x	-3	0
Autofluor counter	3922	4000	3548	3518	4161	6719

43. Cc1cccc(CCNC(=O)c2cc(=O)[nH]c3ccc(Br)cc23)c1
44. CCS(=O)(=O)N1CCCC(C(=O)NC2CCCC2)C1 (stereo unspecified)
45. CN(CC(=O)Nc1ccccc1Cl)C(=O)c1ccc(N2CCCCCC2)c([N+](=O)[O-])c1
46. CCn1cc(CN2CCC(C(=O)Nc3cccc(-c4cscn4)c3)CC2)cn1
47. O=C(NCc1cccs1)C(Cc1ccccc1)NS(=O)(=O)c1cccs1 (stereo unspecified)
48. O=C(Nc1ccc(N2CCOCC2)cc1N1CCOCC1)c1cccs1

Assay by compound	43	44	45	46	47	48
RN4220 kill	9.3	-8.9	0.7	0.7	8.1	3.2
Sa ugtP lethal	0	-6	1	3	-5	3
PrP 5UTR inh	x	-8	-1	-6	-69	-22
Mtb hypoxia inh	13	2	10	5	3	4
Mtb hypoxia inh growth	10	8	44	10	3	13
BJeLR lethal	3	1	x	2	-8	-5
Autofluor counter	x	u	8727	4854	8442	5990

# Twelve entries from above, as tab-separated lines:
entry	mol	RN4220 kill	Sa ugtP lethal	PrP 5UTR inh	Mtb hypoxia inh	Mtb hypoxia inh growth	BJeLR lethal	Autofluor counter
37	COC(=O)CSc1nc2sc3c(c2c(=O)n1-c1ccc(OC)cc1)CCN(C)C3	0.2	20	-10	9	3	13	3922
38	Cc1ccc([N+](=O)[O-])cc1NC(=O)CNC1CCCCC1	1.6	16	-16	8	3	-4	4000
39	COCCNC(=O)C1CC(c2cccc(F)c2)=NO1 (stereo unspecified)	7.5	3	-30	11	9	8	3548
40	CN(C)S(=O)(=O)c1cccc(C(=O)Nc2cc(S(=O)(=O)N3CCOCC3)ccc2N2CCCC2)c1	1.2	4	-13	8	8	x	3518
41	O=S(=O)(Nc1c(F)cccc1F)c1ccc2c(c1)OCCO2	1.8	-2	-24	11	-6	-3	4161
42	CC(C)c1ccc(/C=N/n2cnnc2)cc1	x	x	-15	x	x	0	6719
43	Cc1cccc(CCNC(=O)c2cc(=O)[nH]c3ccc(Br)cc23)c1	9.3	0	x	13	10	3	x
44	CCS(=O)(=O)N1CCCC(C(=O)NC2CCCC2)C1 (stereo unspecified)	-8.9	-6	-8	2	8	1	u
45	CN(CC(=O)Nc1ccccc1Cl)C(=O)c1ccc(N2CCCCCC2)c([N+](=O)[O-])c1	0.7	1	-1	10	44	x	8727
46	CCn1cc(CN2CCC(C(=O)Nc3cccc(-c4cscn4)c3)CC2)cn1	0.7	3	-6	5	10	2	4854
47	O=C(NCc1cccs1)C(Cc1ccccc1)NS(=O)(=O)c1cccs1 (stereo unspecified)	8.1	-5	-69	3	3	-8	8442
48	O=C(Nc1ccc(N2CCOCC2)cc1N1CCOCC1)c1cccs1	3.2	3	-22	4	13	-5	5990

# Continued:
49. COCCNC(=O)COc1cccc2c1OC(C)(C)C2
50. CCOC(=O)NC(=O)c1cn(C(CC)CO)c(=O)[nH]c1=O (stereo unspecified)
51. Cc1nc(NCCc2ccccc2)c2nnn(Cc3ccccc3Cl)c2n1
52. CNC(=S)NN=C(C)c1ccc(Cl)s1
53. CCN(CC(=O)Nc1ccc2c(c1)OCCO2)C(=O)c1ccc(CS(C)(=O)=O)cc1
54. COc1ccccc1NC(=S)Nc1ccccc1F

Assay by compound	49	50	51	52	53	54
RN4220 kill	4.8	1.6	-6.1	3.9	1.4	2.0
Sa ugtP lethal	0	5	5	4	0	-6
PrP 5UTR inh	-12	-15	-16	x	-3	-6
Mtb hypoxia inh	15	2	2	15	7	2
Mtb hypoxia inh growth	3	5	2	20	2	12
BJeLR lethal	-8	-2	-1	x	x	2
Autofluor counter	6165	2209	3146	x	2976	2887

55. CN1CCN(C(=O)CN2C(=O)COc3ccc(S(=O)(=O)N4CCOCC4)cc32)CC1
56. CC(C)CC(=O)NCC(C)NC(=O)CC(C)C (stereo unspecified)
57. CC(=O)c1cccc(OCC(=O)N(CCC2=CCCCC2)c2c(N)n(Cc3ccccc3)c(=O)[nH]c2=O)c1
58. CC(C)CN(C(=O)COc1ccc([N+](=O)[O-])cc1)c1c(N)n(CC(C)C)c(=O)[nH]c1=O
59. O=C(N=c1ccn(-c2nc3ccccc3nc2NS(=O)(=O)c2ccccc2)cc1)c1cccs1
60. Cc1ccc(C(=O)O/N=C2\CCSc3ccc(C)cc32)cc1

Assay by compound	55	56	57	58	59	60
RN4220 kill	3.8	1.3	3.9	0.1	2.9	x
Sa ugtP lethal	2	-3	1	-3	20	x
PrP 5UTR inh	-12	0	-15	-18	-12	-48
Mtb hypoxia inh	14	1	-4	-8	0	x
Mtb hypoxia inh growth	0	7	3	3	5	x
BJeLR lethal	5	-5	x	x	0	6
Autofluor counter	5037	u	3823	3689	1941	19396*

61. CCCCn1c(N)c(N(CCOC)C(=O)CN2C(=O)c3ccccc3C2=O)c(=O)[nH]c1=O
62. CCCc1cc(C(=O)Nc2ccc(OC)cc2[N+](=O)[O-])cs1
63. COc1ccc(CNC(=O)CN(C)S(=O)(=O)c2ccc3c(c2)OCCO3)cc1OC
64. COC(=O)c1sc(NC(=O)CSc2nc3cccnc3n2C)nc1C
65. CNc1nc2ccccc2n1/N=C/c1cccc(OC)c1OC
66. O=C(Cn1nnc(-c2ccccc2)n1)NC(=O)NC1CCCC1
67. CCOc1ccc(-c2cc(C)[n+](CCN(CC)CC)c(-c3ccc(OCC)cc3)c2)cc1
68. COc1ccc(-c2nc3c(n2O)CCCC3=NO)cc1

Assay by compound	61	62	63	64	65	66	67	68
RN4220 kill	1.8	1.9	6.7	3.3	x	4.6	4.9	0.6
Sa ugtP lethal	2	3	2	1	x	9	97*	0
PrP 5UTR inh	-2	-36	-10	-3	-15	-10	-8	x
Mtb hypoxia inh	10	6	3	-1	x	-2	54*	2
Mtb hypoxia inh growth	-11	4	9	-6	x	-3	34*	4
BJeLR lethal	0	-8	x	-1	13	x	3	x
Autofluor counter	5968	5048	8931	6115	11183	3597	5294	x
